# eIF4H FP inh: inhibitors of RNA binding by human eIF4H; AID 2012; eIF4H fluorescence polarization binding assay; actives 0.94% (n = 290,000); inhibition, % at 35 µM; Q15056;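 active means 50% or more with normal probe brightness, or confirmed in later tests; inconclusive means above 50% with abnormal brightness, or retests that disagree; inactive means below 50% or failed in later tests; about a fifth of its hits are not listed in these tables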;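 further: calls also rest on retests at 20 µM and on dose response follow-up; 0% = protein and probe with vehicle and 100% = probe without protein; strong numbers were not always called active; many hits fall short of the cut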
# PABP FP inh: blocks human PABP binding to poly(A) RNA | P11940 | fluorescence polarization | inhibition, % at 35 µM | actives 1% (n = 290,000);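 active means 50% or more with normal probe brightness, or confirmed in later tests; inconclusive means above 50% with abnormal brightness, or retests that disagree; inactive means below 50% or failed in later tests; about a fifth of its hits are not listed in these tables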;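 further: calls also rest on retests at 20 µM and on dose response follow-up; controls were probe without protein and protein plus probe with vehicle; some compounds called inactive have numbers as strong as hits; many hits fall short of the cut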
# Target sequence (P11940 whole entry, looked up): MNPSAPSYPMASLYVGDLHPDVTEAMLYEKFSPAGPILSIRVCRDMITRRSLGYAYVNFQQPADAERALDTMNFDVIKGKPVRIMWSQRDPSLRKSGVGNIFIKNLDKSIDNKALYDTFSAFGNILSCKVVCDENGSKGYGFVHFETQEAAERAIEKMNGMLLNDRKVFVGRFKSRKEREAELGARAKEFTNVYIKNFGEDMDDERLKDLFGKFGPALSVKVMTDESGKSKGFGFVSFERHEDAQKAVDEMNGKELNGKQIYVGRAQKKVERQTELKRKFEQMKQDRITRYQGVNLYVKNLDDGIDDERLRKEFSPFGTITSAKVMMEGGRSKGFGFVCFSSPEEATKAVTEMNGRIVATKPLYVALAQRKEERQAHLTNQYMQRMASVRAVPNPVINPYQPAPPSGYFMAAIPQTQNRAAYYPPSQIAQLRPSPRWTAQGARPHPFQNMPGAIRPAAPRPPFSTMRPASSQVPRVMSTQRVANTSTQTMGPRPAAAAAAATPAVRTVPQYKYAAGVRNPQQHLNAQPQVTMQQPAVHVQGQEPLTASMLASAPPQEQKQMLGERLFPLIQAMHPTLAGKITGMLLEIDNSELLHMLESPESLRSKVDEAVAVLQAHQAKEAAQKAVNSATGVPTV
# Env fusion inh: blocks HIV Env-driven cell-cell fusion; HeLa-JRFL Env/CEM21 cell fusion, luciferase; inhibition, % at 12.3 µM; actives 1.1% (n = 360,000);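 active means mean replicate inhibition score of at least 50 and every replicate individually at or above 50; inconclusive means only one of the two criteria met; inactive means mean below 50 and not all replicates reaching 50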;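 further: 0% = plate neutral controls and 100% = maraviroc near 300 nM; one replicate is shown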
# UUG fidelity: alters start codon recognition fidelity in yeast. S. cerevisiae UUG-firefly luciferase reporter, luminescence/redox ratio. activity score, % at 18.7 µM. actives 0.13% (n = 350,000);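 active means replicate mean at a twofold rise or more, about +100% in these data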;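 further: firefly luciferase made from a UUG start codon reports start codon fidelity; reporter light over untreated wells divided by growth signal over untreated wells; some hits fall short of that in this replicate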
# CSC inhib: cancer stem cell inhibition. cancer stem cell-like cells viability, luminescence. inhibition, % at 7.5 µM. actives 1.1% (n = 300,000);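 active means mean at 75% or more and at least half the replicates too; inconclusive means mean and replicates disagree; tested in HMLE shEcad cells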;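 further: 0% = median of negative and 100% = median of positive control wells; the first replicate is given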
# MT1-MMP act inh: MT1-MMP (human) activation inhibition | P50281 | HT1080 RFP-PRO-GFP cells, GFP/RFP ratio fluorescence, overnight; percent of plate control window, DMSO zero | GFP/RFP ratio change, % at 20 µM | actives 0.061% (n = 360,000) | AID 651647;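 active means GFP/RFP ratio change of at least 30% with cell ATP level not reduced by more than half and red fluorescence within 50% of control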; further: strong numbers were not always called active
#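 Assay system: HT1080 RFP-PRO-GFP cells. Benchmarks: DMSO vehicle wells and RFP-L50D-GFP reporter cell wells. Times: overnight cell settling, then overnight compound exposure, 37 °C, 5% CO2. Compound: 20 µM single dose, 1% DMSO. Read-out basis: GFP/RFP fluorescence ratio.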
# Rce1 inh: inhibitors of yeast Ras-converting enzyme. Q03530. yeast membranes, quenched prenylated peptide cleavage fluorescence. calls only. actives 0.27% (n = 290,000). AID 2563;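 active means fall in fluorescence gain of 50% or more versus controls, with final raw signal at or below 3038400; inconclusive means same 50% fall but final raw signal above 3038400; inactive means fall in fluorescence gain under 50%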;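 further: plate controls were neutral control wells for no effect and wells lacking membranes for full effect; tested at 10 µM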
# Target sequence (Q03530 whole entry, looked up): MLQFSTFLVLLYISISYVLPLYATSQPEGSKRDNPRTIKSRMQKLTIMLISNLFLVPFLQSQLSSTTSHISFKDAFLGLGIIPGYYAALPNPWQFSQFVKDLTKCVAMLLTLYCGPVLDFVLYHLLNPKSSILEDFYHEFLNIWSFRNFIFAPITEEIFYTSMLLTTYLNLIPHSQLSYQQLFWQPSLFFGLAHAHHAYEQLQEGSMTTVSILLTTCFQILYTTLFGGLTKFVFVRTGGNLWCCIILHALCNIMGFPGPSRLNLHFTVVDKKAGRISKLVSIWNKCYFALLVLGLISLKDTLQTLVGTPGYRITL
# MT1-MMP act inh RFP: further read-out of MT1-MMP act inh, marked with its call; RFP signal change, %; measured here: RFP expression control read;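 0 = vehicle wells; hits needed this value within 50% of zero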
# Active calls of the source: *; i = inactive; u = inconclusive; x = not tested or not shown.
smiles	eIF4H FP inh	PABP FP inh	Env fusion inh	UUG fidelity	CSC inhib	MT1-MMP act inh	MT1-MMP act inh RFP	Rce1 inh
Cc1cccnc1C(NC(=O)C1CCN(CCOc2ccc(F)cc2)CC1)c1ccc(Cl)cc1 (configuration not stated)	x	x	37	-5	x	2	-4	x
COc1ccccc1OCC(=O)NN=C(Cc1ccccc1)Cc1ccccc1	-12	7	-3	x	1	2	2	i
Cc1cccc(/C=N/n2c(-c3ccccc3)n[nH]c2=S)c1O	-2	9	3	-13	-8	-1	1	x
CC[C@]12CCCN3CCc4c(n(c5ccccc45)C(=O)C1)[C@@H]32	x	x	21	-2	31	-1	-3	x
Cc1ccc(S(=O)(=O)N(C)CC(=O)OCC(=O)Nc2ccccc2)cc1	-5	4	10	-6	-11	0	1	i
O=C(N/N=C\c1ccc(-c2ccc([N+](=O)[O-])cc2)o1)c1ccc2c(c1)OCO2	0	-23	-57	-17	-2	-22	6	i
Cc1ccc(C)c(N(CC(=O)NC2CCCC2)C(=O)c2cc3cc4cccc(C)c4nc3s2)c1	2	2	x	-19	-2	-35	-25	i
CCOC(=O)c1[nH]c2ccc(F)cc2c1NC(=O)CCN1CCOCC1	-2	6	-3	x	-1	0	3	i
Cc1ccccc1NC1=C(Cl)C(=O)N(C2CCCCC2)C1=O	2	2	x	x	16	-3	-4	i
COc1ccc(C(=O)Nc2ccc(C3(C#N)CCCC3)cc2)cc1OC	-12	-6	-79	-13	11	4	-3	i
CC(C)(C)NC(=O)CSc1nnc(NC(=O)CCn2cnc3ccccc3c2=O)s1	-4	4	x	-4	-8	4	-3	i
Cc1cc(C)n(-c2cc(C(C)(C)C)nc3c(-c4ccc(Cl)cc4)cnn23)n1	6	-10	36	-17	49	0	-7	x
NC(=O)CC(NC(=O)Cc1ccc(Cl)cc1)c1ccc(N2CCC(Cc3ccccc3)CC2)c([N+](=O)[O-])c1 (configuration not stated)	8	24	29	-2	6	7	-1	i
NC(=O)CSc1nnc(-c2ccccc2Br)n1-c1cccc(C(F)(F)F)c1	1	-5	-65	-5	-22	-1	-8	i
CCOC(=O)c1ccccc1NC(=O)COC(=O)C1CC(=O)N(c2ccc3c(c2)OCCO3)C1 (configuration not stated)	x	x	12	-6	9	1	-1	x
Cc1ccc(C(=O)COC(=O)C(C)N2C(=O)C3C4CCC(C4)C3C2=O)cc1C (configuration not stated)	-2	-6	-3	-18	-11	1	1	i
Cc1c(C#N)c2ccccc2n1CC(=O)NCCc1c[nH]c2ccccc12	-4	-7	-2	4	1	-2	-7	i
N#Cc1nc(COc2ccc(Br)cc2)oc1N1CCCCCC1	-3	-6	17	-7	8	-2	-3	i
Oc1cccc(/C=C/c2ccc3cccc(O)c3n2)c1	22	22	-113	-48	87*	3	2	i
O=C(NNS(=O)(=O)c1cc(Cl)c(Cl)cc1Cl)c1cccnc1	-11	-1	-6	-11	-14	-1	5	i
Cn1nc(-c2ccccc2)nc1-c1ccccc1	x	x	-30	-11	-7	1	4	i
O=C(O)CCC(=O)Nc1ccc(-n2ccc(C(F)(F)F)n2)cc1	-2	9	7	x	-2	2	4	i
Cc1cccc(NC(=O)CSCC(=O)Nc2cc(Cl)ccc2N2CCN(C)CC2)c1	-2	33	8	-2	-3	-14	-8	i
CCc1ccc(Nc2n[n+](-c3ccccc3)c(-c3ccc(N(CC)CC)cc3)s2)cc1	-45	-67	39	-6	34	-3	-18	i
O=c1c2ccccc2nc(-c2cccs2)n1-c1ccc2ccccc2c1	-2	-8	x	-38	-16	-2	-7	i
CCOc1ccc(NC(=O)C[n+]2ccc(N(C)C)cc2)cc1	-4	2	-17	-8	-12	-1	-3	i
CC(=O)/C(C#N)=C1\NC(=O)C(Cc2ccc(C)c(C)c2)S1 (configuration not stated)	-1	12	-4	-11	49	-78	-8	i
Oc1cccc(N2Cc3ccccc3C2)c1	3	12	x	-7	-9	-3	-1	i
COc1ccc(Br)cc1CNC(=O)Nc1cccs1	-1	2	5	-18	-6	-7	1	i
Cc1ccc(NC(=O)Nc2ccc(S(N)(=O)=O)cc2)cc1	2	3	-9	x	14	5	0	i
O=C(N/N=C/c1ccc(Br)o1)c1cncc(Br)c1	-4	-11	-11	x	3	-1	2	i
O=C(COc1ccc2ccc(=O)oc2c1)c1ccccc1	2	8	-8	-2	-2	-3	-4	i
COC(=O)[C@H](CCSC)NC(=O)Cn1cnc2c(NCc3ccccc3)ncnc21	x	x	2	-8	x	2	6	x
Cc1c(C)c2ccc(OCC(=O)NCCN3CCOCC3)c(C)c2oc1=O	-8	8	9	-15	5	5	8	i
CC(C)(C)C(=O)Cn1c(=O)n(CC2CCCO2)c(=O)c2ccccc21 (configuration not stated)	-16	-10	x	-18	-1	1	4	i
O=C(O)c1ccc(N=c2oc3cc(O)ccc3cc2C(=O)NCc2ccccc2)cc1	20	2	9	x	14	-24	0	i
CCc1nc(NC(C)(C)C)c2cnn(-c3ccccc3)c2n1	0	0	-20	-6	95*	-8	-4	i
COc1cc(/C=N/O)cc(Br)c1OCc1cccc(Cl)c1	8	5	-2	-4	81*	-14	-7	i
OC[C@@H]1CN(CCN2CCOCC2)C[C@H](n2cnc3c(NCc4ccc(F)cc4)ncnc32)O1	x	x	-2	-14	x	2	4	x
O=C(N/N=C1\CC2CC=CC12)c1ccc(Br)cc1 (configuration not stated)	-5	-6	-2	x	-8	-2	-2	i
CCOC(=O)N/N=C/c1c[nH]c2ccccc12	-4	2	1	x	-10	5	0	i
CC(C)(C)NC(=O)C(c1ccccc1)N(C(=O)c1csnn1)C1CC1 (configuration not stated)	6	2	-12	-8	x	0	-3	i
O=C(NCc1ccncc1)C(=O)NCC1OCCN1S(=O)(=O)c1cc(F)ccc1F (configuration not stated)	7	-2	10	5	-12	-1	-1	i
CN(C)Cc1c(O)ccc2[nH]cnc12	-11	-10	x	-6	-5	2	2	i
CCN(CC)S(=O)(=O)c1ccc2c(c1)nc(CCC(=O)OCc1c(C)noc1C)n2C	-10	-1	-1	-10	7	1	6	i
Cc1ccc(C)c(NC(=O)c2ncn[nH]2)c1	-1	-2	-46	-16	-12	2	2	i
O=C(NC(Cc1ccccc1)C(=O)O)C1CCN(S(=O)(=O)c2cccc(C(F)(F)F)c2)CC1 (configuration not stated)	-6	-9	-4	-8	-6	0	2	i
CCOC(=O)c1c(C)[nH]c(C)c1C(=O)COC(=O)[C@@H](NC(=O)c1ccccc1OCC)C(C)C	-4	7	102*	2	-8	-4	-6	i
COc1ccc(CN2CCSCC2)cc1O	0	2	-21	-10	1	3	3	i
Cc1ccc(N(C)C(=O)C2CCN(S(=O)(=O)c3ccc4c(c3)oc(=O)n4C)CC2)cc1	7	1	4	-8	-11	-2	-3	i
CCc1[nH]nc2c1C1(CCN(C(=O)OCc3ccccc3)CC1)C(C#N)=C(N)O2	7	18	-127	-15	-10	4	1	i
N#CC1(c2c(O)nc3n(c2=O)CCCS3)CCCCC1	3	9	-46	-8	8	3	4	i
COc1ccc(NS(=O)(=O)NC(=O)c2c(C)n(C)c3ccccc23)cc1	3	11	11	-15	19	2	6	i
O=c1c(-c2ccc(Oc3ccccc3)cc2)[n+]([O-])c2ccccc2n1OCc1ccccn1	-5	8	-90	-12	-1	11	-3	i
CN(CC(=O)NC1CCCCCC1)S(=O)(=O)c1ccc(F)cc1	9	-12	-13	-18	4	-3	1	i
COCc1[nH][nH]c(=O)c1C=Nc1ccc(Cl)cc1	-11	8	-53	-15	x	4	7	i
Cc1cc2nc(NC(=O)C3(C)CCN(C)C3)[nH]c2cc1C (configuration not stated)	x	x	-6	-21	x	3	2	x
O=C(O/N=C/c1ccc2c(c1)OCO2)c1ccc([N+](=O)[O-])cc1	1	0	9	-19	x	1	1	i
CN1CCC(=O)N([C@H](CN=[N+]=[N-])c2ccccc2)CC1	2	15	-6	-10	20	-2	4	i
Cc1onc(-c2c(F)cccc2Cl)c1C(=O)NC(=S)Nc1c(C)n(C)n(-c2ccccc2)c1=O	-3	22	-62	-12	-11	2	2	i

# Continuation.
smiles	eIF4H FP inh	PABP FP inh	Env fusion inh	UUG fidelity	CSC inhib	MT1-MMP act inh	MT1-MMP act inh RFP	Rce1 inh
Cc1cc(=O)oc2cc(OCC(=O)NC3CCN(Cc4ccccc4)CC3)c(Cl)cc12	-9	-8	-5	0	0	-1	1	i
Cc1nnc(NC(=O)CSc2ncnc3c2cnn3-c2ccccc2C)s1	-3	-5	x	-26	-1	-3	-3	i
O=C(C[n+]1ccccc1)N/N=C/c1ccccc1F	5	-5	18	x	1	-1	3	i
Cc1ccc(CC2CC(=O)N(Cc3ccco3)C2=O)cc1 (configuration not stated)	4	4	x	-9	14	-3	2	i
CCOC(=O)CCc1c(C)c2ccc(OCC(=O)N(CC)CC)c(C)c2oc1=O	-3	3	u	x	-5	14	2	i
O=C(c1c(O)cc(O)cc1O)C1c2c(cc(O)c3c2O[C@H](c2ccc(O)cc2)[C@@H](O)C3)OC1c1ccc(O)cc1 (some centres not stated)	x	x	19	-2	-2	-5	-2	x
COc1ccc(OC)c(S(=O)(=O)Nc2cccc(O)c2)c1	x	x	1	-1	-5	0	0	i
COc1cc(C(O)c2nc(-c3cccc(C(C)C)c3)cs2)ccc1F (configuration not stated)	x	x	-23	-16	x	-7	-18	x
O=C1OC(Cc2ccncc2)C(O)=C1C1=NCCCN1 (configuration not stated)	5	12	0	-3	-6	-3	3	i
O=c1oc2ccc([N+](=O)[O-])cc2c(N2CCOCC2)c1[N+](=O)[O-]	-1	-6	0	x	-1	x	x	i
COC(C(=O)Nc1cc([N+](=O)[O-])ccc1C)c1ccccc1 (configuration not stated)	3	10	0	x	3	-3	0	i
CSCC[C@H](NC(=O)[C@H](Cc1ccccc1)n1c(=O)[nH]c2ccccc2c1=O)C(=O)N[C@@H](Cc1ccccc1)C(=O)O	8	14	x	7	-6	-1	4	i
Cc1[nH]c(=O)[nH]c(=O)c1/C=N/NC(=O)CCCCCNC(=O)OC(C)(C)C	-7	-9	-12	x	-5	3	-2	i
Cc1cc(CNC(=O)C(C)Cc2ccccc2)nn1C (configuration not stated)	1	1	-1	-17	10	-1	3	i
COc1ccc(/C=C/c2nnc(NC(=O)CSc3ccc(Cl)cc3)s2)cc1	2	14	x	-8	-6	2	2	i
CCOc1ccccc1NC(=O)CC1Nc2ccccc2NC1=O (configuration not stated)	-7	0	x	-13	-8	3	3	i
Cc1ccc(C)c(C(=O)N(Cc2nc(-c3ccc(Cl)cc3)no2)C(C)C)c1	-9	-1	29	-1	12	1	-17	i
O=[N+]([O-])c1ncccc1OCc1ccccc1Br	6	-1	-20	-15	0	-3	0	i
O=C(COC(=O)c1cc(=O)[nH]c2ccccc12)c1ccc(Br)cc1	-14	8	-17	-14	-1	4	0	i
CC1(C)Cc2c(c(N3CCOCC3)nc3sc(C#N)c(N)c23)CS1	-9	-6	x	-6	50	3	0	i
CSCCOC(=O)COc1ccc(/C=N/NC(=O)c2c(Cl)cnn2C)cc1	-2	-8	0	x	-8	7	5	i

# Compound activity deposited in PubChem by several laboratories.

# The list is partial, so the mix of outcomes need not match the whole.
